Yeast UUG start: alters start codon recognition fidelity in yeast | actives 0.13% (n = 350,000) | activity score, % at 18.7 µM | S. cerevisiae UUG-firefly luciferase reporter, luminescence/redox ratio;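 active = replicate mean at a twofold rise or more, about +100% in these data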;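 also: firefly luciferase made from a UUG start codon reports start codon fidelity; reporter light over untreated wells divided by growth signal over untreated wells; some hits fall short of that in this replicate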
MT1-MMP act inh: MT1-MMP (human) activation inhibition; HT1080 RFP-PRO-GFP cells, GFP/RFP ratio fluorescence, overnight; percent of plate control window, DMSO zero; GFP/RFP ratio change, % at 20 µM; actives 0.061% (n = 360,000); AID 651647;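 active = GFP/RFP ratio change of at least 30% with cell ATP level not reduced by more than half and red fluorescence within 50% of control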; also: strong numbers were not always called active
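Assay system: HT1080 RFP-PRO-GFP cells. Benchmarks: DMSO vehicle wells and RFP-L50D-GFP reporter cell wells. Times: overnight cell settling, then overnight compound exposure, 37 °C, 5% CO2. Compound: 20 µM single dose, 1% DMSO. Read-out basis: GFP/RFP fluorescence ratio.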
Rce1 inhib: blocks yeast Ras-converting enzyme; Q03530; yeast membranes, quenched prenylated peptide cleavage fluorescence; calls only; actives 0.27% (n = 290,000);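 active = fall in fluorescence gain of 50% or more versus controls, with final raw signal at or below 3038400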;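 also: plate controls were neutral control wells for no effect and wells lacking membranes for full effect; tested at 10 µM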
PABP polyA inh: blocks human PABP binding to poly(A) RNA | P11940 | fluorescence polarization | inhibition, % at 35 µM | actives 1% (n = 290,000) | AID 2014;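 active = 50% or more with normal probe brightness, or confirmed in later tests; about a fifth of its hits are not listed in these tables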;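 also: calls also rest on retests at 20 µM and on dose response follow-up; controls were probe without protein and protein plus probe with vehicle; some compounds called inactive have numbers as strong as hits; many hits fall short of the cut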
Target sequence (P11940 whole entry, looked up): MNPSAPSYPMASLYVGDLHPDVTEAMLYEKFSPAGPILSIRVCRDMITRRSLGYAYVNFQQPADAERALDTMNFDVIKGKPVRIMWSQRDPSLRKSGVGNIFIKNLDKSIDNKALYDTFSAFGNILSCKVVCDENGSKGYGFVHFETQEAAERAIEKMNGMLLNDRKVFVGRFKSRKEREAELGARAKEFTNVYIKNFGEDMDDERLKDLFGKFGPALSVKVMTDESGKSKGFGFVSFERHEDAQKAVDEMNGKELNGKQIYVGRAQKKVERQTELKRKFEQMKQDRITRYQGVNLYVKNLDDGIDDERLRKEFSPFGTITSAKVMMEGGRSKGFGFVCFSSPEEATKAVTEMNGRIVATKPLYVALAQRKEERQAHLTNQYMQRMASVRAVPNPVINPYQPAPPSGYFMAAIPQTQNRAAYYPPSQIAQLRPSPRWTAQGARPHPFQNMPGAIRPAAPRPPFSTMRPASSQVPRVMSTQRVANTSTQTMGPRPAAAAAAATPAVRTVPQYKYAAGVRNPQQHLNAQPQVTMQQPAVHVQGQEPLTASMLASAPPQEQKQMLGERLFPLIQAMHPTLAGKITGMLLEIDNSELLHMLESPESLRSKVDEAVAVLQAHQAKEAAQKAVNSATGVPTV
eIF4H FP inh: inhibitors of RNA binding by human eIF4H | Q15056 | eIF4H fluorescence polarization binding assay | inhibition, % at 35 µM | AID 2012 | actives 0.94% (n = 290,000);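 active = 50% or more with normal probe brightness, or confirmed in later tests; about a fifth of its hits are not listed in these tables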;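 also: calls also rest on retests at 20 µM and on dose response follow-up; 0% = protein and probe with vehicle and 100% = probe without protein; strong numbers were not always called active; many hits fall short of the cut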
Env fusion inh: inhibitors of HIV Env-mediated cell fusion; actives 1.1% (n = 360,000); HeLa-JRFL Env/CEM21 cell fusion, luciferase; inhibition, % at 12.3 µM;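 active = mean replicate inhibition score of at least 50 and every replicate individually at or above 50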;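 also: 0% = plate neutral controls and 100% = maraviroc near 300 nM; one replicate is shown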
CSC inhib: blocks cancer stem cells; cancer stem cell-like cells viability, luminescence; actives 1.1% (n = 300,000); inhibition, % at 7.5 µM;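 active = mean at 75% or more and at least half the replicates too; tested in HMLE shEcad cells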;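 also: 0% = median of negative and 100% = median of positive control wells; the first replicate is given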
MT1-MMP act inh RFP: second read-out of MT1-MMP act inh, no call of its own (marks repeat the call); RFP signal change, %; measured here: RFP expression control read;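 0 = vehicle wells; hits needed this value within 50% of zero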
Active calls of the source: *; i = inactive; / = no result given. The list is partial. The share of hits here may be higher or lower than overall.

(1) CCC(C)NS(=O)(=O)c1ccc(NC(=O)C2CCCO2)cc1 (stereo not drawn)
(2) CN(C)CCCNCCCNC(=O)/C=N/O
(3) O=C(Nc1cccc2ccccc12)N1CCN(c2ncccn2)CC1
(4) Cc1cc(OCC(=O)Nc2nccs2)c2c(C)c(C)c(=O)oc2c1
(5) COc1cccc(C2=NOC(C(=O)Nc3cccc(C(C)=O)c3)C2)c1OC (stereo not drawn)

assay / entry	1	2	3	4	5
Yeast UUG start	/	-6	/	-17	-5
MT1-MMP act inh	1	0	0	8	5
MT1-MMP act inh RFP	-1	-2	-1	4	-2
Rce1 inhib	i	i	i	/	i
PABP polyA inh	3	12	8	/	-6
eIF4H FP inh	-4	6	24	/	-12
Env fusion inh	-13	/	16	-19	-36
CSC inhib	-4	-23	-13	/	/

(6) COc1ccc(C(=O)N(C)C2CCCCC2)cc1S(=O)(=O)N1CCOCC1
(7) O=C(NCCCN1CCCCCC1)C1CC(=O)N(CCc2ccccc2)C1 (stereo not drawn)
(8) CC1(C(=O)N2Cc3ccccc3C2)CCN1C(=O)C1(c2ccc(Cl)cc2)CC1 (stereo not drawn)
(9) COc1ccc(C(=O)Nc2ccc(S(=O)(=O)Nc3onc(C)c3C)cc2)cc1OC
(10) CCn1c(CNC(=O)c2ccco2)nnc1SCC(=O)c1ccccc1

assay / entry	6	7	8	9	10
Yeast UUG start	-4	-2	-18	-3	/
MT1-MMP act inh	1	3	1	4	2
MT1-MMP act inh RFP	2	8	-5	3	5
Rce1 inhib	/	i	/	i	/
PABP polyA inh	/	49	/	4	10
eIF4H FP inh	/	28	/	3	-2
Env fusion inh	4	/	-36	/	2
CSC inhib	/	-6	/	-5	5

(11) Cc1ccccc1S(=O)Cc1ccc(C(=O)N2CCN(C(=O)c3ccco3)CC2)o1 (stereo not drawn)
(12) CC(=O)Nc1ccc(NC(=O)COc2ccc3c(c2)CCC3)cc1
(13) COc1ccc(CCNC(=O)C(C)c2ccc([N+](=O)[O-])cc2)cc1 (stereo not drawn)
(14) O=c1cc(C(Cl)(Cl)Cl)oc2c1ccc1ccccc12
(15) CCOC(=O)c1cc(C#N)c(N2CCOCC2)nc1-c1ccccc1

assay / entry	11	12	13	14	15
Yeast UUG start	8	/	/	0	/
MT1-MMP act inh	-1	2	3	-41	-7
MT1-MMP act inh RFP	4	1	1	-32	-2
Rce1 inhib	i	i	/	i	i
PABP polyA inh	-1	-3	-8	13	-7
eIF4H FP inh	-9	-4	-6	1	-8
Env fusion inh	0	13	8	35	15
CSC inhib	-4	-9	-6	116*	-2

(16) OCC(CO)(CO)NC(=S)Nc1cc(Cl)cc(Cl)c1
(17) COc1cccc(C(=O)NNC(=O)C(=O)Nc2ccc(C)c(Cl)c2)c1
(18) COc1ccc(C(O)c2nc3ccccc3s2)cc1 (stereo not drawn)
(19) CCCCNC(=O)CNC(=S)N(Cc1cc(OC)c(OC)c(OC)c1)C1CCCC1
(20) C/C(=N\Nc1ccc([N+](=O)[O-])cc1)c1ccc2c(c1)OCO2

assay / entry	16	17	18	19	20
Yeast UUG start	/	-7	/	-10	/
MT1-MMP act inh	4	-4	/	-4	-17
MT1-MMP act inh RFP	4	-3	/	-5	2
Rce1 inhib	i	i	i	i	i
PABP polyA inh	6	-1	-3	0	0
eIF4H FP inh	20	22	1	-2	10
Env fusion inh	-1	-3	/	12	-38
CSC inhib	-10	/	-6	-1	3

(21) O=C(Nc1ccc(F)cc1)Nc1nnc(COc2ccccc2F)s1
(22) c1ccc(OCCOCCN2CCN(C(c3ccccc3)c3ccccc3)CC2)cc1
(23) Nc1nc(CSC(=S)N2CCCCC2)nc(Nc2ccccc2)n1
(24) COc1ccc(OC)c(C(=O)NC(CC(N)=O)c2ccc(NCc3ccccn3)c([N+](=O)[O-])c2)c1 (stereo not drawn)
(25) O=C(c1cc2ccccc2o1)N1CCN(S(=O)(=O)c2ccc(F)c(F)c2F)CC1

assay / entry	21	22	23	24	25
Yeast UUG start	/	3	/	-6	-5
MT1-MMP act inh	-2	-15	3	-3	1
MT1-MMP act inh RFP	-14	-8	-1	0	-4
Rce1 inhib	i	i	i	i	/
PABP polyA inh	-5	7	7	2	/
eIF4H FP inh	-1	6	6	-8	/
Env fusion inh	-2	-5	-8	-17	/
CSC inhib	61	1	-2	2	-14

A second format for two compounds above.
Each structure is followed by: Yeast UUG start | MT1-MMP act inh | MT1-MMP act inh RFP | Rce1 inhib | PABP polyA inh | eIF4H FP inh | Env fusion inh | CSC inhib
23) Nc1nc(CSC(=S)N2CCCCC2)nc(Nc2ccccc2)n1
 : / | 3 | -1 | i | 7 | 6 | -8 | -2
21) O=C(Nc1ccc(F)cc1)Nc1nnc(COc2ccccc2F)s1
 : / | -2 | -14 | i | -5 | -1 | -2 | 61

(cont.)
(26) c1ccc(-c2csc(-c3ccncc3)n2)cc1
(27) CC(C)(C)NC(=O)CN(C(=O)Cn1nnc(-c2ccc(Cl)cc2)n1)C1CCN(Cc2ccccc2)CC1
(28) O=C(CSc1nnc2n1CCCN2)c1ccc(Cl)cc1
(29) C=CCNC(NC(=O)c1ccccc1)(C(=O)OCC)C(F)(F)F (stereo not drawn)
(30) CCN(C(=O)Cc1ccc(NC2=NC3CS(=O)(=O)CC3S2)cc1)c1ccccc1 (stereo not drawn)

assay / entry	26	27	28	29	30
Yeast UUG start	-20	-9	-18	-17	-13
MT1-MMP act inh	-1	-13	-1	7	4
MT1-MMP act inh RFP	0	-9	0	4	4
Rce1 inhib	i	i	i	i	i
PABP polyA inh	1	9	4	3	-10
eIF4H FP inh	2	0	-5	-9	-12
Env fusion inh	-16	/	-13	-3	-3
CSC inhib	3	-2	6	-9	4

(31) O=C(CCNC(=O)c1ccco1)Nc1ccc(OC(F)F)cc1
(32) C=C(C)c1ccc(C(C)(C)NC(=O)NCc2ccco2)cc1
(33) CC(SCc1nc2sc3c(c2c(=O)[nH]1)CCCC3)C(=O)Nc1ccccn1 (stereo not drawn)
(34) CC(=O)c1sc(NC(=O)COc2ccc(Cl)cc2C)nc1C
(35) CN(c1ccc(F)cc1)S(=O)(=O)c1ccc(Cl)c(C(=O)NC2(C)CCS(=O)(=O)C2)c1 (stereo not drawn)

assay / entry	31	32	33	34	35
Yeast UUG start	-30	-8	-1	/	-2
MT1-MMP act inh	1	1	-19	2	-3
MT1-MMP act inh RFP	3	-1	-2	5	-1
Rce1 inhib	i	i	i	i	/
PABP polyA inh	5	-2	/	5	/
eIF4H FP inh	-6	-4	/	-5	/
Env fusion inh	12	/	1	-28	7
CSC inhib	-1	-10	-27	-1	-8

(36) CN1CCN(c2ccc(NC(=O)CSc3nnnn3-c3ccccc3F)cc2)CC1
(37) Cc1nn(C)c2ncc(C(=O)c3cc(F)ccc3O)cc12
(38) Cc1ccccc1CNC(=O)c1ccc(Cl)c([N+](=O)[O-])c1
(39) COCCn1nnnc1SCC(=O)N1CCCCC1
(40) Clc1ccc(CNC2CCCC2)c(Cl)c1

assay / entry	36	37	38	39	40
Yeast UUG start	-8	/	/	-11	-10
MT1-MMP act inh	-1	0	3	/	-2
MT1-MMP act inh RFP	1	-1	7	/	4
Rce1 inhib	i	i	i	i	i
PABP polyA inh	-8	-1	4	-8	2
eIF4H FP inh	-4	6	3	-4	-4
Env fusion inh	10	/	/	-15	/
CSC inhib	34	-11	-7	4	/

(41) COc1ccc(NC(=O)CSc2nnc3ccc(-c4ccncc4)nn23)cc1OC
(42) COc1ccc(C2C(C(C)=O)=C(O)C(=O)N2c2ccc(Br)cc2)cc1 (stereo not drawn)
(43) COc1ccccc1-c1cc(C(F)(F)F)nc(S(=O)(=O)CCCC(=O)Nc2cccnc2Cl)n1
(44) O=C(NCCS(=O)(=O)N1CCN(c2ccccc2F)CC1)c1ccc2c(c1)OCO2
(45) O=C(NCc1ccc2c(c1)OCO2)c1cc2ccccc2oc1=O

assay / entry	41	42	43	44	45
Yeast UUG start	-2	-19	/	-24	-26
MT1-MMP act inh	1	8	-2	2	7
MT1-MMP act inh RFP	7	-3	-5	1	7
Rce1 inhib	i	i	/	i	i
PABP polyA inh	3	13	4	/	-2
eIF4H FP inh	3	15	0	/	7
Env fusion inh	13	7	-5	-5	/
CSC inhib	3	-11	/	-11	-12

Random excerpt: 3 records from the list.
(45) O=C(NCc1ccc2c(c1)OCO2)c1cc2ccccc2oc1=O
(42) COc1ccc(C2C(C(C)=O)=C(O)C(=O)N2c2ccc(Br)cc2)cc1 (stereo not drawn)
(41) COc1ccc(NC(=O)CSc2nnc3ccc(-c4ccncc4)nn23)cc1OC

assay / entry	45	42	41
Yeast UUG start	-26	-19	-2
MT1-MMP act inh	7	8	1
MT1-MMP act inh RFP	7	-3	7
Rce1 inhib	i	i	i
PABP polyA inh	-2	13	3
eIF4H FP inh	7	15	3
Env fusion inh	/	7	13
CSC inhib	-12	-11	3

The list continues:
(46) Cc1ccccc1OCC(=O)N/N=C/c1cccn1C
(47) CCC(=O)Nc1nnc(S(=O)(=O)N2CCCC2)s1
(48) Cc1ccnc(N2C3CCC2CC(O)(c2ccccc2)C3)n1 (stereo not drawn)
(49) O=C1CN(C(=O)COC(=O)c2ccc(N3CCCCCC3)c([N+](=O)[O-])c2)c2ccccc2N1
(50) CCCCSc1cc(=O)n(-c2ccccc2)nc1C(=O)OCC

assay / entry	46	47	48	49	50
Yeast UUG start	-8	-17	-20	/	-6
MT1-MMP act inh	/	-1	0	-3	3
MT1-MMP act inh RFP	/	0	1	1	4
Rce1 inhib	i	i	i	i	i
PABP polyA inh	6	2	7	-10	0
eIF4H FP inh	26	0	-3	-15	6
Env fusion inh	/	-10	-14	-20	0
CSC inhib	-12	-4	-9	20	7

(51) CCCC(=O)NC(=S)Nc1ccc(CN2CCOCC2)cc1
(52) CC(=O)N/C(=C\c1ccc(Br)s1)C(=O)O
(53) Cc1nc(Cl)sc1C(=O)Nc1cccc(C(F)(F)F)c1
(54) O=C(Nc1cccc(Cl)c1)OCc1cn(-c2ccc(Cl)cc2)nn1
(55) Cc1cc2c(n1-c1ccc(C(N)=O)cc1)CC(C)(C)CC2=O

assay / entry	51	52	53	54	55
Yeast UUG start	/	/	-12	-26	-7
MT1-MMP act inh	-7	-3	-2	-1	-1
MT1-MMP act inh RFP	-2	0	1	3	1
Rce1 inhib	i	i	/	i	i
PABP polyA inh	4	-6	/	-5	24
eIF4H FP inh	-2	-10	/	-13	4
Env fusion inh	5	/	12	-11	18
CSC inhib	-10	0	/	-7	-3

(56) CNC(=O)OCc1ncn(-c2ccccc2)c1COC(=O)NC
(57) COC(=O)c1ccc(C23CC4(C2)[C@H](CN(Cc2ccc(-c5ccccc5)cc2)[C@@H]4c2ccccc2)C3c2ccc(Cl)nc2)cc1 (stereo partly drawn)
(58) CCOC(=O)C1(Cc2cccc(Cl)c2)CCCN(C(=O)c2cn[nH]c2)C1 (stereo not drawn)
(59) CC(C)[C@H](NC(=O)c1ccc(F)cc1)C(=O)OCC(=O)NC(=O)c1cccn1C
(60) CC1CCCC(C)N1CCCNC(=O)c1ccc2nc(N3CCOCC3)sc2c1 (stereo not drawn)
(61) CCOC(=O)c1cnc2ccc(OC)cc2c1NCc1ccccc1
(62) Cc1cc(C(=O)CN2C(=O)NC3(CCCc4sccc43)C2=O)c(C)n1-c1ccc(Cl)cc1 (stereo not drawn)
(63) C=CCOc1cccc(/C=N/NC(=O)CN2CCCCC2)c1

assay / entry	56	57	58	59	60	61	62	63
Yeast UUG start	-10	/	-3	10	1	6	-5	-8
MT1-MMP act inh	4	/	2	0	3	-9	-4	-2
MT1-MMP act inh RFP	3	/	6	1	4	-6	-11	5
Rce1 inhib	/	i	i	i	i	i	i	i
PABP polyA inh	/	-16	-1	4	2	-7	-18	-4
eIF4H FP inh	/	-6	-5	8	-6	-12	11	2
Env fusion inh	-10	-50	12	19	-1	/	33	-9
CSC inhib	/	5	-6	-5	-12	/	-8	-6
